VDR inh: blocks the human vitamin D receptor; P11473; VDR-SRC2-3 peptide fluorescence polarization, 2 h; Potency, µM, for the others: max response, negative = inhibition, most hits filed as inhibitors; 400,000 tested, 0.93% active; AID 504847; active = well fitted inhibition curve with a large enough effect; inconclusive = small, poorly fitted or top-dose-only effect, or another doubt; inactive = no such curve, though single readings can be large or run the other way; note: series mostly up to about 120 µM
Target sequence (P11473 whole entry, looked up): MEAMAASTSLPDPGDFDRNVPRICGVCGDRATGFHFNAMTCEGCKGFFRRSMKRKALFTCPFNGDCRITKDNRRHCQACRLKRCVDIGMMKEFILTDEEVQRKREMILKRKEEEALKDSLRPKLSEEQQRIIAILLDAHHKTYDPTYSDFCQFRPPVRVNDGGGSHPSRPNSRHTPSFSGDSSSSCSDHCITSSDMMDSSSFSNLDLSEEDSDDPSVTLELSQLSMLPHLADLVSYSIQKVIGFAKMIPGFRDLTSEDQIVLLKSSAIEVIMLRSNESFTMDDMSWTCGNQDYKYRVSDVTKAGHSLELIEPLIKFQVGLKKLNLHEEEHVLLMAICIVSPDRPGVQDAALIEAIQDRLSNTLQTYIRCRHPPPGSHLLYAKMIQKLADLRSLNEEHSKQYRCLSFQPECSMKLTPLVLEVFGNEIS
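Signal is fluorescence polarization, reporting how far test compounds block the interaction of VDR with the SRC2-3 coregulator peptide after a 2 h room-temperature incubation.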
* marks the source's active call; other numbers are inactive results; ? = inconclusive; & = joins results of further samples. % is set by controls: 0 for no effect and ±100 for the full control effect; potency is the fitted concentration of half-maximal effect. Not all compounds are listed; the hit share may differ from the screen's.

SMILES | VDR inh
CC1(C)CC(=O)C(CS(=O)(=O)c2ccccc2)=C(Cl)C1 | -20%
Cc1cc(NC(=O)COc2ccc(F)c(Cl)c2)no1 | -2%
O=C(NCc1ccccn1)C(=O)Nc1cccc2ccccc12 | 10%
CCCCCC(=O)N1CCN(CCN=CC2=C(O)CC(c3ccc(OC)c(OC)c3)CC2=O)CC1 (stereo not drawn) | 9%&0%
Cc1cc(C(=O)NN=C2CCCC2)c2ccccc2n1 | 14%
COc1ccccc1NC(=O)NCc1cccn1Cc1ccccc1 | 3%
CCn1c(COc2ccccc2C)nnc1SCC(=O)N1CCCCC1 | -14%
Cc1nc2ccc(NC(=O)C3CCN(S(=O)(=O)c4cccs4)CC3)cc2s1 | 24%
O=[N+]([O-])C(/C=C(\Cl)[N+](=O)[O-])=C1N(Cc2ccc(Cl)nc2)CCN1Cc1ccc(Cl)nc1 | -9%
Cc1ccc(S(=O)(=O)Nc2ccc(S(=O)(=O)N3CCOCC3)cc2)cc1 | 8%
COc1cccc(CNC(=O)CN2C(=O)CSc3c2c(C)nn3-c2ccccc2)c1OC | 15%
COc1cccc(CNC(=O)CN2C(=O)CSc3ccc(S(=O)(=O)N4CCCCC4)cc32)c1 | 17%
Cc1cc(=O)n(Cc2cccc(Br)c2)c2c1c(C)nn2-c1ccccc1 | -4%
CC(C)c1ccc(NC(=O)c2cc(S(=O)(=O)N3CCCC3)c[nH]2)cc1 | -6%
O=C(O)CCC(=O)N1N=C(c2cccs2)CC1c1ccc(Br)cc1 (stereo not drawn) | 3%
CCOC(=O)c1c(S(=O)(=O)NCC(=O)NCc2ccccc2Cl)c(C)n(C)c1C | 15%&5%
Cc1sc(NC(=O)CSc2nc(N)n(CC(=O)c3ccccc3)n2)c(C#N)c1C | -1%
c1ccc(Oc2ncnc3ccccc23)cc1 | 11%
Cn1nc(CC(=O)N2CCN(c3ccccc3)CC2)c2ccccc2c1=O | 13%
CN(C)c1nnc(-c2ccc(Cl)cc2)o1 | -5%
O=C(COC(=O)COc1ccc(Cl)cc1Cl)Nc1cccnc1Cl | 5%
Cn1c(=O)c2ncn(CC(=O)Nc3cccc(-c4nc5ccccc5s4)c3)c2n(C)c1=O | -4%
C=CCCC(=O)Nc1nc(C)c(-c2csc(Nc3ccc(Cl)cc3)n2)s1 | -29%
CC(C)(C)OC(=O)N[C@H](C(=O)OC(C)(C)C)c1ccc(Br)cc1 | 6%
CCCSc1cc(=O)n(-c2ccccc2)nc1C(=O)O | 1%
CC1CCCN(CCCNC(=O)c2ccc(CS(=O)(=O)c3c(Cl)cccc3Cl)o2)C1 (stereo not drawn) | -14%
CCCCN(CC)CCCNC(=O)CS(=O)(=O)Cc1nc(-c2ccc(C)cc2)oc1C | ?
Cc1ccc(Nc2c(-c3ccc(N4CCOCC4)cc3)nc3ncccn23)cc1 | 0%&13%
CC(C)NC(=O)c1cc(C(=O)c2cc(Cl)ccc2O)coc1=N | 4%
O=C(NCCc1ccncc1)c1ccc2nc(Cc3cccc(Cl)c3)oc2c1 | -6%
COc1ccc(CNC(=O)CN2CCC(NC(=O)c3ccccc3C)CC2)cc1 | -6%
CCOc1ccc(CNC(=O)c2ccc3[nH]c(C)c(C)c3c2)cc1OC | 11%
C/C(=N\NC(=O)c1ccccc1)c1ccc(N2CCCCC2)cc1 | -6%
COc1cc(NC(=O)c2n[nH]c(=O)c3ccccc23)cc(OC)c1 | -11%
Cc1ccc(/C(=N/Nc2ncnc3ccccc23)C(=O)O)cc1 | 7%
O=C(c1ccccc1)N1CCN(S(=O)(=O)N2CCOCC2)CC1 | -4%
CC1CN(c2nc3c(c(=O)n(Cc4ccc(Cl)cc4)c(=O)n3C)n2C)CC(C)O1 (stereo not drawn) | -29%
O=C(Nc1ccc(N2CCOCC2)cc1)c1cnccn1 | 7%
O=C(Nc1cccc(C(F)(F)F)c1)c1cc(S(=O)(=O)N2CCCCC2)ccc1N1CCOCC1 | 4%
CC(=O)N(C(C)=O)C1=C(C#N)C2(CCCCC2)Cc2ccccc21 | -24%
O=C(NC(=S)NCc1ccco1)c1ccccc1 | -7%
Cc1cccc(C)c1NC(=O)CCCSc1nnc(N)s1 | -8%
COc1ccc(Cn2cnc3c4cc(F)ccc4n(C)c3c2=O)cc1 | -2%
Cc1cc(NC(=O)CCC(=O)N(CC(=O)NC2CCCC2)Cc2ccccc2Cl)no1 | -23%
CC(C)OP(=O)(OC(C)C)C(Nc1cccc(C(=O)O)c1)c1ccccc1 (stereo not drawn) | 10%
O=C(NNC(=O)c1cnccc1C(F)(F)F)c1ccccc1 | 1%
Cc1ccc(NC2=NCC(=O)N2CCc2ccccc2)cc1C | -5%
C/C(=N\Nc1ccc(S(N)(=O)=O)cc1[N+](=O)[O-])c1ccco1 | 2%
CCOC(=O)c1cnn(-c2nc3c(C)cccc3s2)c1C | 10%
N#C/C(=C/c1ccc(O)cc1)c1nc(-c2ccc(-c3ccccc3)cc2)cs1 | -1%
CN(C)c1ccc2c(O)cc(=O)n(C)c2c1 | 32µM*
O=S(=O)(c1ccc(Oc2ccc3c(c2)OCO3)c(S(=O)(=O)N2CCOCC2)c1)N1CCOCC1 | -5%
CCOc1ncccc1C(=O)OCC(=O)NC(=O)NC(C)C | -10%
Clc1ccccc1CSc1nc2ccncc2[nH]1 | -14%
CCOC(=O)c1cccc(NC(=O)CCc2c(C)nn(-c3ccc(N4CCCC4)nn3)c2C)c1 | 3%
Cc1cccc(NC(=O)C(C)SCc2nc3sc(C)c(C)c3c(=O)[nH]2)n1 (stereo not drawn) | 0%
CC(=O)c1ccc(N2CCN(S(=O)(=O)c3ccc4c(c3)CC(C)N4C(=O)C3CCC3)CC2)cc1 (stereo not drawn) | 11%
COc1ccc(OC)c(-n2c(SCC(=O)NCC3CCCO3)nc3ccccc3c2=O)c1 (stereo not drawn) | -9%
CO[C@H]1/C=C/O[C@@]2(C)Oc3c(C)c(O)c4c(O)c(c(/C=N/N5CCN(C)CC5)c(O)c4c3C2=O)NC(=O)/C(C)=C\C=C\[C@H](C)[C@H](O)[C@@H](C)[C@@H](O)[C@@H](C)[C@H](OC(C)=O)[C@@H]1C | -9%
CCOc1ccc(N(CC)C(=O)c2noc3c2COc2ccc(C)cc2-3)cc1 | 9%

Additional records
SMILES | VDR inh
COC(=O)c1c(NC(C)=O)sc2c1CCN(Cc1ccccc1)C2 | -3%
CCOc1ccc(NC(=O)COC(=O)COc2cccc3c2OC(C)(C)C3)cc1 | 12%
O=C(N/N=C/c1ccccc1)c1ccc(N2CCOCC2)c([N+](=O)[O-])c1 | -15%
CC1CC(C)CN(C(=O)COC(=O)c2cccc([N+](=O)[O-])c2)C1 (stereo not drawn) | 21%
CN(Cc1ccc(F)cc1)C(=O)CNC(=O)c1cccs1 | -3%
COc1ccc(NC(=O)CN2CCN(c3ccccc3F)CC2)cc1 | -6%
COc1ccc(S(=O)(=O)N2CCN(c3ccc4nnc(-c5ccc(F)cc5)n4n3)CC2)cc1 | -23%
O=C(Nc1nc2c(s1)CCCCCC2)Nc1ccc(F)cc1F | 12%
COc1ccccc1NC(=O)C1CCN(C(=O)c2sc3nc[nH]c(=O)c3c2C)CC1 | -6%
COc1ccc(N=C2NC(=O)/C(=C\C=C\c3ccccc3)S2)cc1 | -4%
Cc1cccc(C(=O)NCC(c2ccco2)N(C)C)c1 (stereo not drawn) | 1%
O=c1c([N+](=O)[O-])cc(C(F)(F)F)cn1Cc1c(Cl)cccc1Cl | -14%
CC(C)c1ccc(NC(=O)c2ccccc2NC(=O)C2CC=CCC2C(=O)O)cc1 (stereo not drawn) | -6%
O=C(Nc1ccc([N+](=O)[O-])cc1)C1C(c2ccccc2)=C1c1ccccc1 | 12%
CC(C)(Oc1ccc(Cl)cc1)C(=O)Nc1nc2ccc(S(C)(=O)=O)cc2s1 | -13%

As a working copy, part of the list above:
SMILES | VDR inh
O=C(Nc1ccc([N+](=O)[O-])cc1)C1C(c2ccccc2)=C1c1ccccc1 | 12%
CC(C)(Oc1ccc(Cl)cc1)C(=O)Nc1nc2ccc(S(C)(=O)=O)cc2s1 | -13%

(listing goes on)
SMILES | VDR inh
COc1ccc(S(=O)(=O)Nc2ccc(N3CCOCC3)cc2)cc1 | 30%
Cc1cccc2c(C(=O)Nc3ccc(Br)cc3)cc(-c3ccccn3)nc12 | -4%
CCOC(=O)c1cccc(-c2ccc(C=O)o2)c1 | 6%
O=C(Cn1nnc2ccccc21)Nc1ccc(Cl)cn1 | -7%
S=c1[nH]nc(CCc2ccccc2)n1Cc1ccccc1 | 3%
COc1ccc(COC(=O)c2cccc(S(=O)(=O)N3CCN(C(C)=O)CC3)c2)cc1 | -16%
CCOc1ccc(Oc2ccccc2NC(=O)C2=COCCO2)cc1 | 3%
CCC(=O)OCC(=O)Nc1cc([N+](=O)[O-])ccc1OC | 11%
O=C(Nc1ccccc1)N1CC2(CCN(C(=O)c3ccco3)CC2)C1 | 3%
O=C(NC(=S)Nc1ccc(S(=O)(=O)N2CCCCC2)cc1)c1ccccc1 | 4%
CCP(=O)(c1cccc([N+](=O)[O-])c1)c1cccc([N+](=O)[O-])c1 | 8%
CC(C)c1ccc(NC(=S)NC2CCN(Cc3ccccc3)CC2)cc1 | -2%
C/C(Nc1ccc(Cl)cc1)=C(/C#N)C(N)=O | -12%
COc1ccc(N=C2O/C(=C/c3sc(=S)n(CC4CCCO4)c3O)N=C2C#N)cc1 (stereo not drawn) | 26%
CCOc1ccc(-c2cn3c(n2)sc2cc(C(=O)NCCCN4CCCCC4)ccc23)cc1 | -8%
O=C(NCCNCc1cccc(Cl)c1)c1ccco1 | -21%
Cc1ccc(NS(=O)(=O)c2cccc(C(=O)N3CCN(C(=O)c4ccco4)CC3)c2)cc1 | 9%
CC(C)(C)Nc1nc(Oc2ccc(=O)n(-c3ccccc3)n2)nc(N2CCOCC2)n1 | -11%
NC(=O)C1CCN(CC(=O)NC2CCCc3ccccc32)CC1 (stereo not drawn) | 6%
CN(CC(=O)Nc1ccc(F)cc1)C(=O)COC(=O)c1ccc(-c2ccccc2)cc1 | 13%
CCOc1ccccc1NC(=S)N(CCOC)C1CCN(C(C)=O)CC1 | 12%
COc1ccc(Br)cc1CNc1ccc(O)cc1 | 25µM*
O=C(NC1CCCC1)c1cc(Cl)ccc1[N+](=O)[O-] | -5%
O=C(CCc1c[nH]c2ccccc12)Nc1ncccc1O | 5%
CCCCNC(=O)C1CCN(S(=O)(=O)c2c(C)noc2/C=C\c2ccc(OC)cc2)CC1 | -15%
O=C(O)c1nc(N2CCCC2)ncc1Cl | 6%
CSc1cccc(NC(=O)C2CCN(S(=O)(=O)c3ccc(F)cc3)CC2)c1 | 16%
CCOC(=O)N1CCN(C(=O)Cn2ccc3ccccc3c2=O)CC1 | 10%
CC1=NN(C(=O)CSCc2ccccc2)C(O)(c2ccc(Cl)cc2)C1 (stereo not drawn) | 12%
O=C(CCCn1c(=O)c2ccccc2n(Cc2ccccc2)c1=O)NCc1ccco1 | 7%

Part of the list above, with the structure last.
VDR inh,SMILES
-12%,C/C(Nc1ccc(Cl)cc1)=C(/C#N)C(N)=O
26%,COc1ccc(N=C2O/C(=C/c3sc(=S)n(CC4CCCO4)c3O)N=C2C#N)cc1 (stereo not drawn)
-8%,CCOc1ccc(-c2cn3c(n2)sc2cc(C(=O)NCCCN4CCCCC4)ccc23)cc1
-21%,O=C(NCCNCc1cccc(Cl)c1)c1ccco1
9%,Cc1ccc(NS(=O)(=O)c2cccc(C(=O)N3CCN(C(=O)c4ccco4)CC3)c2)cc1
-11%,CC(C)(C)Nc1nc(Oc2ccc(=O)n(-c3ccccc3)n2)nc(N2CCOCC2)n1
6%,NC(=O)C1CCN(CC(=O)NC2CCCc3ccccc32)CC1 (stereo not drawn)
13%,CN(CC(=O)Nc1ccc(F)cc1)C(=O)COC(=O)c1ccc(-c2ccccc2)cc1
12%,CCOc1ccccc1NC(=S)N(CCOC)C1CCN(C(C)=O)CC1
25µM*,COc1ccc(Br)cc1CNc1ccc(O)cc1
-5%,O=C(NC1CCCC1)c1cc(Cl)ccc1[N+](=O)[O-]
5%,O=C(CCc1c[nH]c2ccccc12)Nc1ncccc1O
-15%,CCCCNC(=O)C1CCN(S(=O)(=O)c2c(C)noc2/C=C\c2ccc(OC)cc2)CC1
6%,O=C(O)c1nc(N2CCCC2)ncc1Cl
16%,CSc1cccc(NC(=O)C2CCN(S(=O)(=O)c3ccc(F)cc3)CC2)c1
10%,CCOC(=O)N1CCN(C(=O)Cn2ccc3ccccc3c2=O)CC1
12%,CC1=NN(C(=O)CSCc2ccccc2)C(O)(c2ccc(Cl)cc2)C1 (stereo not drawn)
7%,O=C(CCCn1c(=O)c2ccccc2n(Cc2ccccc2)c1=O)NCc1ccco1

Other results follow.
SMILES | VDR inh
Cc1cc(C)n2nc(C(=O)Nc3nnc(C4CC4)s3)nc2n1 | 26%
O=c1oc2c3c4c(cc2s1)CCCN4CCC3 | 79µM*
C[C@@H]1COC(=O)[C@H](Cc2ccc(F)cc2)CC/C=C/C[C@@H](CC(=O)N[C@@H](CO)Cc2ccccc2)C(=O)N1 | -18%
COc1ccccc1CNC(=O)c1cccc(N2CCCS2(=O)=O)c1 | -13%
Cc1cc(C)nc(SCC(=O)NN)n1 | -11%
O=C(Nc1ccc(S(=O)(=O)Nc2ncccn2)cc1)c1ccccc1Cl | 2%&-16%
COc1ccc(CN2CCC(=O)NC2=O)cc1 | 25%
O=C(O)CCc1nn2c3ccccc3nc2n(CCN2CCCCC2)c1=O | -10%
COC(=O)c1ccc2c(c1)C(NC(C)=O)CCc1cc(OC)c(OC)c(OC)c1-2 (stereo not drawn) | -3%
Cc1nc(N2CCC(C(N)=O)CC2)c2c(-c3cccs3)csc2n1 | 8%
CCOC(=O)Cc1c(C)nc2cc(-c3ccc(C)cc3)[nH]n2c1=O | -6%
Cc1cccnc1NC(=O)c1ccc(Cl)c(S(=O)(=O)N2CCCC2)c1 | 4%
C#CCn1c(C2CC(=O)N(c3ccc(OC)cc3)C2)nc2ccccc21 (stereo not drawn) | 0%
CC(=O)Nc1ccc(-c2csc(Nc3ccc(Cl)cn3)n2)cc1 | 12%
CCOC(=O)C(Sc1nn(C)c(=S)s1)C(C)=O (stereo not drawn) | ?
Cc1nc(SCc2nc3cc(Cl)c(F)cc3[nH]2)c2oc3ccccc3c2n1 | -15%
CCCn1nnc(NC(=O)c2cccc(OCC)c2)n1 | 0%
